Autofluor counter: counter-screen for toxin protease inhibitors: compound fluorescence | compound autofluorescence counterscreen, microsphere flow cytometry; stronger effect = higher value | fluorescence intensity (test concentration not listed) | 360,000 compounds, 3.1% hits;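 active means at least 3 SD above the mean of all compounds, about 16000 in these data; inconclusive means too few beads counted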;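 further: 100 nL of 1 mM stock went into each well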
BJeLR viability: BJeLR cell viability loss; BJeLR (HRASV12) viability, CellTiter-Glo ATP luminescence, 48 h; reference of the scale not given here; inhibition, % (test concentration not listed); 300,000 compounds, 0.17% hits; AID 1554;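 active means replicate mean above 50%; inconclusive means above 50% but judged a plate artefact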;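 further: 50 nL library stock added to about 25 µL; numbers are from one replicate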
Sa RN4220 lethal: kills Staphylococcus aureus RN4220; S. aureus RN4220 growth, OD600, 16 h; inhibition, % (test concentration not listed); 330,000 compounds, 0.33% hits; AID 1259311;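 active means z-score of -3 or lower and OD600 up to 0.18 on both plates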;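 further: plate controls were untreated cells for no effect and reference antibiotic for full effect; stock transfer was 100 nL into about 80 µL; one replicate is shown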
Sa ugtP lethal: compounds lethal to S. aureus RN4220 ugtP deletion mutant | OD600 growth, 16 h; some inactives read as strong as hits | growth inhibition, % (concentration not given with the values) | 330,000 compounds, 0.54% hits;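 active means z-score under -3 and OD600 up to 0.15 on both plates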;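 further: plate controls were untreated wells for no effect and antibiotic for full effect; wells of about 80 µL received 100 nL stock; the first replicate is given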
PrP 5UTR inh: inhibition of PrP 5' UTR reporter expression. cell-based PrP 5' UTR mRNA reporter, plate reader. inhibition, % (test concentration not listed). 340,000 compounds, 0.35% hits. AID 488862;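 active means every replicate at 50% or more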;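 further: 0 = median of the neutral control wells; tested in H4 reporter cells; numbers are from one replicate; inactives centre near -14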
Mtb hypoxia rep: reduces hypoxia-regulated biosensor signal in M. tuberculosis | M. tuberculosis hypoxia-regulated fluorescent reporter, fluorescence | fluorescence inhibition, % (no concentration beside the values) | 300,000 compounds, 0.1% hits;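 active means 35 to 45% if threefold the growth effect, above 45% if 1.5-fold the growth effect; inactive means the rest, general growth blockers included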;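 further: wells of about 50 µL received 100 nL stock; 0% = vehicle wells and 100% = reference inhibitor wells; whole bacteria with a GFP reporter of the hypoxia response; strong numbers were not always called active; many hits fall short of the cut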
Mtb hypoxia rep growth: second read-out of Mtb hypoxia rep, no call of its own (marks repeat the call); growth inhibition, %; measured here: M. tuberculosis growth (absorbance);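 0% = vehicle and 100% = reference antibiotic; read after six days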
Numbers without * were called inactive; ? = inconclusive; . = no result given.

SMILES	Autofluor counter	BJeLR viability	Sa RN4220 lethal	Sa ugtP lethal	PrP 5UTR inh	Mtb hypoxia rep	Mtb hypoxia rep growth
O=C(O)c1cc(O)ccc1NC(=O)C(c1ccccc1)c1ccccc1	4521	3	1.5	4	-2	2	-1
COc1ccc(-c2nc(CN3CCC(C(=O)NC4CC4)CC3)c(C)o2)cc1OC	5203	6	7.0	9	-6	5	10
O=C(CNC(=O)c1ccco1)N/N=C/c1ccc(C(=O)O)cc1	4709	2	.	.	-10	.	.
COc1ccccc1N1CCN(Cc2ccc(SC)cc2)CC1	3769	-3	-8.9	35	-33	-3	10
CCN(CC)C(=O)c1ccc2c(c1)C1C(Cl)C(Sc3ccccc3[N+](=O)[O-])CC1C(C(=O)O)N2 (centres undefined)	3187	-2	-3.8	-10	-15	-3	-21
CC1C(=NO)C(C)C(c2ccccc2)NC1c1ccccc1 (centres undefined)	22855*	17	4.3	-3	-13	4	1
O=C1CS/C(=N/N=C/c2ccc(OS(=O)(=O)c3ccccc3)cc2)N1	5541	1	.	.	-15	.	.
O=C(c1cccc(C(F)(F)F)c1)N1CCN(S(=O)(=O)c2ccc(Cl)s2)CC1	4989	-16	1.7	6	-11	3	3
COC(=O)c1ccc(S(=O)(=O)NCc2ccco2)n1C	5376	0	1.2	1	-10	-7	7
CSc1ccccc1C(=O)Nc1ncn[nH]1	4249	-2	2.9	2	-7	3	7
O=C1N/C(=N/N=Cc2ccc(O)cc2)SC1Cc1ccccc1 (centres undefined)	.	.	6.2	10	.	-10	6
COc1ccc(NS(=O)(=O)c2cccc(NC(=O)CCC(=O)c3cccs3)c2)cc1	2628	0	-2.0	16	-99	6	1
CC(CCc1ccccc1)NS(=O)(=O)c1ccccc1F (centres undefined)	4356	-6	9.0	1	-21	-3	-3
O=S(=O)(c1ccc2ccccc2c1)N1CCN(S(=O)(=O)c2c(F)cccc2F)CC1	3912	.	7.5	16	-31	8	15
O=C(CCC(=O)c1cccs1)NCC(=O)Nc1ccc(F)c(F)c1F	2602	-2	0.5	-2	-18	-3	-1
CCOC(=O)C1=C(C)N=c2sc(=C(C)C)c(=O)n2C1c1ccc(N(C)C)cc1 (centres undefined)	11422	-1	-1.0	30	-20	9	1
CC(C)Oc1cc(NC(=O)CS(=O)CC(=O)N(C)C)c(Cl)cc1Cl (centres undefined)	4471	4	2.4	-2	-1	15	7
CCn1c(SCC(=O)NN=Cc2c[nH]c3ccccc23)nnc1-c1ccc(C(C)(C)C)cc1	.	.	7.8	-11	.	-1	2
CC(=O)Nc1ccc(Nc2cc(C)nc3c(-c4ccc(Cl)cc4)cnn23)cc1	2228	5	32	36	-54	-3	1
COc1ccc(S(=O)(=O)N2CCC(Cc3ccccc3)CC2)cc1C(N)=O	3691	1	-2.0	10	-2	7	15
Cc1nc2cc(-n3ccc(=O)cc3)ccc2n1-c1ccccc1	11181	-5	4.1	0	-9	-2	4
CC(C)c1cc(N2CCOCC2)n2ncc(-c3ccccc3)c2n1	2981	-1	-10	11	.	15	1
CC1CCN(S(=O)(=O)c2ccc3c(c2)N(CC(=O)NCCN2C(C)CCCC2C)C(=O)CS3)CC1 (centres undefined)	6041	4	.	.	-18	.	.
OCC(O)C1OC(Nc2ccc(Cl)cc2)C(O)C1O (centres undefined)	5119	-7	1.6	6	-41	0	2
COC(=O)C1=C(C)NC(C)=C(C(=O)OC)C1c1cc2cc(C)ccc2[nH]c1=O	9130	-2	4.2	6	-6	-78	-14

Next results follow.
SMILES	Autofluor counter	BJeLR viability	Sa RN4220 lethal	Sa ugtP lethal	PrP 5UTR inh	Mtb hypoxia rep	Mtb hypoxia rep growth
O=c1c(Cl)c(N2CCCCC2)cnn1-c1nc2ccccc2[nH]1	10281	25	3.3	0	75*	8	10
CC(=NNc1nc(N)cc(Cl)n1)c1ccc(Cl)c(Cl)c1	.	.	-5.2	5	.	-9	2
CCCCn1c(=O)c(C(=O)Nc2ccccc2S(N)(=O)=O)c(O)c2ccccc21	10638	6	93*	61	.	3	7
O=c1[nH]c(=O)c2nnc(NN=Cc3ccccc3F)nc2[nH]1	.	.	2.2	5	.	-6	-5
S=c1nc(-c2cc(Cl)cc(Cl)c2)[nH][nH]1	3302	-5	2.9	-3	-18	-3	-9
Cc1noc(C)c1C(=O)NC(Cc1c[nH]c2ccccc12)C(=O)O (centres undefined)	3249	.	1.3	0	-32	2	7
O=C(N/N=C/c1ccccc1OC(F)F)NC1CCCCC1	4628	1	.	.	-5	.	.
Cc1ccc(NC(=O)c2ncn(CC(=O)NCC(C)c3ccccc3)n2)cc1C (centres undefined)	4009	.	-0.7	4	-43	-6	4
COc1ccc(C(C#N)C2(C)OCCO2)cc1OC (centres undefined)	6810	13	2.1	1	-9	-7	-13
Cn1c(OCc2ccco2)nc2c1c(=O)n(Cc1ccc(Cl)c(Cl)c1)c(=O)n2C	2965	6	-11	-4	17	14	17
CCCCC(=O)N/N=C/c1c(O)n(CCc2ccccc2)c(=O)[nH]c1=O	5138	-1	2.9	4	.	0	7
CCn1c2ccccc2c2nc3cc(OC)c(OC)cc3nc21	5340	14	6.3	-2	-30	-57	27
COC(=O)c1nn2c(C(F)(F)F)cc(-c3ccc(Br)o3)nc2c1Br	10641	3	4.3	-3	.	11	4
COc1ccc(C(C#N)N2CCOCC2)cc1 (centres undefined)	3379	5	-7.4	0	-2	17	7
CCOC(=O)c1[nH]c2ccccc2c1N=CN(C)C	2978	3	6.1	0	-14	9	9
CCCNc1cc(C)oc(=O)c1C(=O)CC	2173	-6	3.0	1	-21	13	-2
COc1ccccc1-c1cc(C(=O)Nc2cc(C)on2)no1	10727	-15	0.6	-2	-32	3	8
CCOc1ccc(/C=N/NC(=O)c2nnn(-c3nonc3N)c2CN(C)C2CCCCC2)cc1	5383	8	.	.	5	.	.
O=C(CSc1ccc2nnc(-c3ccccn3)n2n1)Nc1cccc(F)c1	5102	15	1.6	9	-11	6	-24
Cc1nn(C)c(C(=O)NC2C3CC4CC(C3)CC2C4)c1Cl (centres undefined)	2753	11	2.1	-5	-5	7	12
CNC(=O)COc1coc(CN2CCN(c3ccccc3F)CC2)cc1=O	5489	-1	0.8	1	-4	1	6
O=C(O)/C=C/C(=O)Nc1ccc(SC(F)(F)F)cc1	9296	-9	-1.0	8	-15	-6	-18
COc1ccc(NC(=O)C2CC(=O)N(CCc3ccc(F)cc3)C2)c(OC)c1 (centres undefined)	3504	-7	3.7	1	-2	18	4
O=C(c1c(F)cccc1Cl)N1CCN(c2ccccn2)CC1	6093	-13	4.1	-1	-8	-7	0
C#CCOCCOCCOCCNc1nc(N2CCN(C(=O)C(CCCCN)n3cc(C(N)C(C)CC)nn3)CC2)nc(N2CCN(C(=O)C(C(C)CC)n3cc(C(N)CO)nn3)CC2)n1 (centres undefined)	.	.	-1.1	-18	.	7	13

Following part
SMILES	Autofluor counter	BJeLR viability	Sa RN4220 lethal	Sa ugtP lethal	PrP 5UTR inh	Mtb hypoxia rep	Mtb hypoxia rep growth
Cc1ccccc1-n1c(SCC(=O)N2CCN(c3ccccc3)CC2)nnc1-c1ccncc1	21220*	-1	5.0	-6	-43	1	12
O=C(Cn1nc(Cc2cccnc2)c2ccccc2c1=O)N1CCN(C(=O)c2ccco2)CC1	5062	4	3.5	8	-39	.	.
Cc1cccc(C)c1-n1c(C)cc(/C=N\NC(=O)CC(=O)NC2CCCCC2)c1C	1932	-13	.	.	-15	.	.
O=C(CSCC(=O)N1CCOCC1)Nc1nc(-c2ccc3c(c2)OCO3)cs1	4559	-6	13	15	-15	-3	7
O=C(NN=Cc1ccc(-c2ccc([N+](=O)[O-])cc2)o1)C1COc2ccccc2O1 (centres undefined)	.	.	2.0	6	.	7	4
CCN(CC)CCN(C(=O)c1ccc(C(=O)c2ccccc2)cc1)c1nc2cc3c(cc2s1)OCO3	5745	-7	-4.4	10	-48	4	6
COc1ccc(CN2CCN(CC=C(C)C)C(CCO)C2)cc1Cn1cncn1 (centres undefined)	2270	-7	5.5	2	-11	-4	-2
Cc1ccc(S(=O)(=O)N(C)/N=C/C=C/c2ccccc2)cc1	1974	-2	.	.	-16	.	.
CCN(CC(=O)NCc1ccc(F)cc1)C(=O)COc1ccccc1[N+](=O)[O-]	3912	.	4.2	3	-1	3	2
CCCCNC(=O)c1ccc(CS(=O)(=O)c2ccc(C)cc2)o1	3461	-8	2.1	2	-16	-3	7
CCOC(=O)c1[nH]c2ccccc2c1NC(=S)Nc1ccccc1	5566	0	1.0	4	-20	-15	9
Cn1cccc1CC(=O)N/N=C/c1cccc2ccccc12	3452	-3	.	.	-20	.	.
CCc1ccc(OCC(=O)NN=Cc2cc([N+](=O)[O-])ccc2N2CCOCC2)cc1	.	.	-11	-16	.	-1	-15
CCOC(=O)C1CCN(C(=O)c2cc3cc(C)ccc3[nH]2)CC1	4002	-1	-1.0	13	-35	3	4
C=CCn1c(Cc2ccc(OC)cc2)nnc1SCC(=O)c1cccc([N+](=O)[O-])c1	6954	1	-1.2	3	-5	12	5
Cc1nn(Cc2c(Cl)cccc2Cl)c(Cl)c1C(=O)O	4076	-2	-1.0	4	-6	10	8
Nn1c(COc2ccccc2)nnc1SCC(=O)O	3920	-3	1.9	3	-2	-2	1
COc1ccc(C(=O)N2CCN(S(=O)(=O)c3ccc(F)cc3)CC2)cc1OC	2477	-10	3.6	4	-6	-10	3
O=C(CNC(=O)c1ccc([N+](=O)[O-])cc1)NN=Cc1c[nH]c2ccccc12	.	.	6.6	-4	.	8	5
CCn1c(-c2ccccc2)c(C(=O)O)c2ccccc21	4557	-7	0.1	0	-9	.	.
CSc1ccc(-c2nnn(Cc3ccccn3)n2)cc1	4977	8	1.8	7	-73	.	.
CN(CC(=O)Nc1ccc(F)cc1)CC(=O)N1CCc2ccccc21	5136	.	1.6	0	-18	-6	-1
CCCn1c2ccccc2c2nnc(SCC(=O)OCC)nc21	2128	-2	0.9	-3	4	.	.
CCc1nc2ccccc2n(CCOCCn2c(=O)c(CC)nc3ccccc32)c1=O	21722*	.	0.2	8	-7	7	2
NCCCC(N)(C(=O)O)C(F)F (centres undefined)	6365	14	5.4	3	-37	4	0

Of the compounds above, 3 have a CF3 group:
SMILES	Autofluor counter	BJeLR viability	Sa RN4220 lethal	Sa ugtP lethal	PrP 5UTR inh	Mtb hypoxia rep	Mtb hypoxia rep growth
O=C(c1cccc(C(F)(F)F)c1)N1CCN(S(=O)(=O)c2ccc(Cl)s2)CC1	4989	-16	1.7	6	-11	3	3
COC(=O)c1nn2c(C(F)(F)F)cc(-c3ccc(Br)o3)nc2c1Br	10641	3	4.3	-3	.	11	4
O=C(O)/C=C/C(=O)Nc1ccc(SC(F)(F)F)cc1	9296	-9	-1.0	8	-15	-6	-18

Further structures.
SMILES	Autofluor counter	BJeLR viability	Sa RN4220 lethal	Sa ugtP lethal	PrP 5UTR inh	Mtb hypoxia rep	Mtb hypoxia rep growth
COC(=O)c1ccc(N2CCN(c3ccccc3)CC2)c(NC(=O)C2CC2)c1	?	2	0.9	4	-19	-7	-6
CCn1cc(C(=O)NCCCN2CCC(C)CC2)c(=O)c2cc(S(=O)(=O)N3CCOCC3)ccc21	4507	10	6.5	12	1	4	0
CCOC(=O)CCCc1c[nH]c2ccccc12	21767*	-4	4.5	-1	-10	0	-3
Cc1ccc(NC(=O)c2cnc(SCC(=O)c3ccccc3)n(C)c2=O)cc1	3989	4	6.1	7	-29	8	5
COc1cccc(SCC(=O)N2CCN(c3ccccc3)CC2)c1	4567	-7	3.3	5	-15	-9	1
Cc1cc(NC(=O)CSc2nc(-c3ccc(Br)cc3)nc3c2c(=O)n(C)c(=O)n3C)no1	6188	-4	1.5	-8	-17	15	4
COC(=O)C(C)N(c1ccc(OC)cc1)S(C)(=O)=O (centres undefined)	3580	1	1.9	2	-18	2	0
Cc1ccc2c(c1)cc(CN(Cc1ccc3c(c1)OCO3)C(=O)c1ccccc1)c1nnnn12	3876	0	-5.9	-11	1	-2	5
Cn1c(N2CCC(C(N)=O)CC2)nc2c1c(=O)n(Cc1cccc(Br)c1)c(=O)n2C	6874	0	4.4	7	-8	2	7
CC1CCN(S(=O)(=O)c2csc(C(=O)Nc3ccccc3)c2)CC1	9543	0	5.0	9	-1	2	6
CCCSC1=N/C(=C\c2ccc([N+](=O)[O-])o2)C(=O)S1	4417	.	4.7	7	-24	12	9
